From PubChem BioAssay
B2AR ag: beta2AR agonists driving receptor internalization, primary screen, cell-based, FAP fluorogen, flow cytometry | Beta-2 adrenergic receptor (Homo sapiens), P07550 | Am2.2-beta2AR cells; reference of the scale not given here | response, % (no concentration beside the values) | 340,000 tested, 0.43% active;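 active means response above a set limit, near 3 SD of response in nonfluorescent compounds, cut at about 42% in these data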;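 further: stock transfer was 100 nL into about 11 µL; a reference agonist was the positive control; negative values mostly stem from fluorescent compounds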
Target sequence (P07550 whole entry, looked up): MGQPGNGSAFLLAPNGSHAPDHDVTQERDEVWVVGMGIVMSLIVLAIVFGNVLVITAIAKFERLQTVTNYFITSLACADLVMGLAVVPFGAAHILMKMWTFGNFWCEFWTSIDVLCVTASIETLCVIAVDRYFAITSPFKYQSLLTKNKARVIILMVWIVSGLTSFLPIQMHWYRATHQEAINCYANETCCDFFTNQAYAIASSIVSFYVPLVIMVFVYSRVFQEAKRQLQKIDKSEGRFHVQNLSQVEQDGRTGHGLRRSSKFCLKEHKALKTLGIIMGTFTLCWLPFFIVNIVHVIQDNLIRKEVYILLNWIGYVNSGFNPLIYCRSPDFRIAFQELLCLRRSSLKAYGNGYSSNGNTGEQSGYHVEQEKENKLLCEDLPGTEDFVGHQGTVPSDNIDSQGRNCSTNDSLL
Calb FLC: C. albicans growth inhibition with fluconazole, primary screen, CaCi-2 strain, Alamar Blue fluorescence. C. albicans CaCi-2 (fluconazole-resistant clinical isolate) + fluconazole, 48 h. growth inhibition, % (concentration not given with the values). 300,000 tested, 0.57% active. AID 1979, 2009;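 active means most replicates above 75%; inconclusive means exactly half above 75%; inactive means most below 75%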;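 further: all wells also contain fluconazole at 8 µg/ml as a sub-toxic cotreatment; 0% = median of DMSO wells and 100% = median of geldanamycin control wells; wells of about 8 µL received 7.5 nL stock; the first replicate is given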
Ecoli rRNA inh: reduced GFP signal of wild-type E. coli, primary screen, bacterial rRNA inhibitor project, GFP/RFP fluorescence, OD600, single point | E. coli WT GFP vs humanized-ribosome RFP mutants, 24 h; stronger effect = lower value; DMSO median 0, no signal -100 | GFP signal change (wild-type ribosome), % (concentration not given with the values) | 350,000 tested, 1.6% active;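 active means significant combined selectivity score with lowered wild-type GFP, culture density cut under 30%, mutant RFP and density less affected; inactive means any of these conditions unmet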; further: one replicate is shown; some compounds called inactive have numbers as strong as hits
A1 inh: caspase 3/7 activation in MEF A1-2A-BIM cells, primary screen, A1 inhibitor project, cell-based, luminescence, HTS | Caspase-Glo 3/7 luminescence, 3 h; percent of clofoctol response, vehicle zero | caspase activation, % (no concentration beside the values) | AID 2462, 2010 | 330,000 tested, 0.066% active;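 active means over half of replicate activation scores above 10%, or exactly half above 10 with the replicate mean above 10; inconclusive means replicate mean below 10 yet half the replicates above 10; inactive means over half of replicates below 10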;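 further: wells of about 30 µL received 50 nL stock; many hits fall short of the cut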
Beta apoptosis: inhibitors of cytokine-induced beta cell apoptosis, primary screen, luminescence. protection from apoptosis, % (test concentration not listed). AID 435005, 2010. 300,000 tested, 0.8% active. INS-1E cytokine-induced death, ATP luminescence, 48 h; percent of positive-control rescue, neutral wells zero;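 active means all replicates at 75% or more, or half of them and the mean; inconclusive means half reach 75% but not the mean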;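 further: 0% = cytokine-treated negative control wells and 100% = positive control rescue; higher means more ATP so stronger rescue from cytokine killing; wells of about 40 µL received 100 nL stock; the first replicate is given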
T cruzi repl: inhibitors of intracellular T. cruzi growth, primary screen, luminescence, NIH3T3 host cells | T. cruzi beta-gal in NIH3T3, 90 h | inhibition, % (concentration not given with the values) | 300,000 tested, 1.4% active | AID 1885, 2009;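 active means mean inhibition across valid replicates above about 55%, limit read from the data; inconclusive means mean below that limit but half or more replicates reach it; inactive means mean below it, under half of replicates reach it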;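 further: signal also drops with host cell toxicity which is not excluded here; 0% = plate median of DMSO wells and 100% = zero luminescence signal; higher percent means less beta-gal luminescence so fewer parasites; stock transfer was 50 nL into about 50 µL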
LANA-H2B inh: blockers of LANA interaction with H2A/H2B – biochemical, FP readout, HTS, primary screen; Protein LANA1 (Human herpesvirus 8 type P (isolate GK18)), Q9QR71; cell-free LANA-H2A/H2B peptide, fluorescence polarization; inhibition, % (concentration not given with the values); 320,000 tested, 0.6% active; AID 2629, 2010; in the data active means inhibition mostly above about 10%, no sharp cut-off; inactive means mostly below about 6.7%;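 further: stock transfer was 7.5 nL into about 10 µL; 0% = median of vehicle wells and 100% = median of positive control wells; one replicate is shown; the record names a cut of 25% in any replicate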
ALR H2O2 inh: inhibitors of human ALR sulfhydryl oxidase, primary screen, biochemical, H2O2 detection, HRP-luminol luminescence, single point; FAD-linked sulfhydryl oxidase ALR (Homo sapiens), P55789; 290,000 tested, 3.8% active; purified ALR, DTT oxidation; inhibition, % (test concentration not listed);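 active means mean and each replicate at 75% or more; inconclusive means only one of the two met; inactive means neither met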;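 further: stock transfer was 7.5 nL into about 7.5 µL; 0% = neutral wells and 100% = wells with inactivated enzyme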
Target sequence (P55789 whole entry, looked up): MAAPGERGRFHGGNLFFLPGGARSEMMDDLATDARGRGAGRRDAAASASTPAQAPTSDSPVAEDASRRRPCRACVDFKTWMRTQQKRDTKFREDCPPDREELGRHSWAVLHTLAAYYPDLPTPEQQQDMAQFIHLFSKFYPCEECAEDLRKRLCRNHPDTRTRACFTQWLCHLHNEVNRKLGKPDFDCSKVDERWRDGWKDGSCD
Ecoli rRNA inh OD600: further read-out of Ecoli rRNA inh, marked with its call; OD600 change, %; measured here: OD600 growth;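 optical density of the mix in the first replicate; 0 = DMSO median and -100 = no signal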
Ecoli rRNA inh RFP: also measured in Ecoli rRNA inh; calls as there; RFP signal change, %; measured here: RFP humanized mutant strains;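 first replicate; 0 = DMSO median and -100 = no signal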
* = called active by the depositor; ? = inconclusive; . = no result given. An excerpt; count on the stated rates, not on these rows.

Below each SMILES – B2AR ag	Calb FLC	Ecoli rRNA inh	Ecoli rRNA inh OD600	Ecoli rRNA inh RFP	A1 inh	Beta apoptosis	T cruzi repl	LANA-H2B inh	ALR H2O2 inh
(1) Cc1onc(-c2c(Cl)cccc2Cl)c1C(=O)N1CCN(c2ncccn2)CC1
    -7	3	-9	-12	-0.7	0.0	-1	-7	-6.1	0
(2) Cc1cc(C)n(-c2ccc(Cl)c(C(=O)Nc3ccc(OC(F)(F)F)cc3)n2)n1
    -24	3	.	.	.	-0.1	-5	5	-1.8	-1
(3) N#Cc1cccc(NC(=O)COC(=O)Cn2nc(-c3ccccc3)oc2=O)c1
    -3	.	.	.	.	0.0	-2	.	2.2	2
(4) O=C(c1oc2ccccc2c1N1CCCCC1)N1CCCCC1
    -4	-1	.	.	.	0.2	0	12	-0.8	99*
(5) CN(C)S(=O)(=O)c1ccc(S(=O)(=O)N2CCCC(C(=O)NC3CC3)C2)cc1 (stereo unspecified)
    5	1	3	9	-2.6	0.2	0	0	-3.4	1
(6) O=C(C1CCCO1)N(Cc1ccccc1)c1ccccc1 (stereo unspecified)
    4	-2	1	-5	-4.9	-0.2	1	11	-2.2	-1
(7) CCC(=O)c1ccc(N2CCN(C(=O)c3ccccc3)CC2)c(F)c1
    6	7	9	1	-1.2	-0.4	7	0	-7.3	.
(8) Cc1ccc(-n2c(C)c(C)c3c(N)ncnc32)cc1
    -4	-2	-7	-12	0.5	-0.9	-8	1	6.5	-7
(9) O=C(c1ccccc1)N1CCN(Cc2ccccc2)CC1
    -1	0	.	.	.	0.5	-2	-14	1.5	-1
(10) Nc1nnc(SCc2ccc(F)cc2)n1-c1ccccc1
    2	-12	.	.	.	0.3	-10	-6	2.5	-7
(11) CCN(Cc1nc2ccccc2c(=O)[nH]1)C(=O)c1cc(C2CC2)nn1-c1ccccc1
    0	.	.	.	.	-0.1	-3	.	-1.5	9
(12) Cc1cc(=O)oc2c(C)c(OC(C)C(=O)NCC(O)c3ccccc3)ccc12 (stereo unspecified)
    -2	3	0	3	0.6	0.0	1	-5	-1.0	1
(13) Cc1cccc(NC(=O)c2ccccc2NC(=O)CCC(=O)O)c1
    8	-6	6	2	-1.2	0.5	-3	-17	-0.9	-1
(14) COc1ccccc1C(=O)Nc1ccnn1C1CCN(C(C)CSC)CC1 (stereo unspecified)
    3	1	17	19	4.0	0.2	-6	26	7.1	-3
(15) O=C(NCc1ccc(Cl)cc1)c1cc(-c2ccco2)on1
    6	-8	.	.	.	-0.6	4	-13	-0.7	-12
(16) CC(C)=CCOc1ccc2ccc(=O)oc2c1
    -6	-3	5	8	-3.3	-0.1	-4	-2	0.2	1
(17) O=[N+]([O-])c1ccc2nc(NS(=O)(=O)c3ccc(Cl)cc3)sc2c1
    0	29	-10	-16	3.7	0.0	-6	-3	8.3	-1
(18) CCOC(=O)c1c(NC(=O)/C=C/c2ccc(C)o2)sc(C)c1C
    3	-5	8	12	6.6	0.0	0	-7	-2.4	28
(19) O=C(CCCc1ccccc1)NCc1ccccc1
    .	-33	10	0	2.3	0.7	-1	-23	-1.5	-2
(20) CC1(C)CC(C(CC(=O)Nc2nccs2)c2ccccc2)CCO1 (stereo unspecified)
    2	-4	0	0	-0.2	0.7	3	10	6.8	-5
(21) Cc1ccccc1OCc1nc2ccccc2[nH]1
    -12	-10	-12	-16	-2.5	-5.8	17	10	-1.2	-7
(22) Cc1ccccc1OCC(O)CN(Cc1ccccc1O)C1CCCCC1 (stereo unspecified)
    10	2	-50	-51	-14	-0.2	16	22	-3.1	1
(23) COc1ccc(CNC(=O)c2oc3ccc(S(=O)(=O)N4CCOCC4)cc3c2C)cc1
    6	-3	0	-11	4.3	0.5	-4	-2	4.2	-2
(24) O=C(N1CCN(Cc2ccccc2)CC1)C12CC3CC(CC(C3)C1)C2
    3	-9	.	.	.	2.3	7	18	6.5	-11
(25) C=CCn1c(/N=C/c2ccc(N(C)C)cc2)nc2ccccc21
    -3	27	.	.	.	0.0	2	2	-9.4	20
(26) O=C(O)c1cccc(NC(=O)C2C3C=CC(C3)C2C(=O)O)c1 (stereo unspecified)
    3	-5	.	.	.	0.0	-6	-9	2.4	-3
(27) Cc1nc(CS(=O)(=O)c2ccccc2)cc(Sc2ccc(Cl)cc2)n1
    4	-10	.	.	.	-0.8	.	4	1.5	-14
(28) Cc1nnc(SCc2ccc([N+](=O)[O-])cc2)o1
    0	11	6	3	-3.6	0.2	-5	3	3.1	-16
(29) O=C(NCc1ccccn1)C1C2C=CC(C2)C1C(=O)Nc1ccc(F)cc1 (stereo unspecified)
    0	-3	.	.	.	0.8	-3	-9	-9.3	.
(30) Cc1cccc(NC(=O)CN(CCc2ccccc2)S(C)(=O)=O)c1
    -11	-3	2	-10	4.7	0.9	.	-2	-4.0	-4
(31) CCOC(=O)COc1ccc(/C=C/[N+](=O)[O-])c(OCC(=O)OCC)c1
    54*	-11	.	.	.	0.0	10	11	-3.4	5
(32) CCOC(=O)COc1cnc2ccccc2n1
    15	42	17	15	1.2	0.5	-1	-15	6.4	-8
(33) O=C(Nc1ccccc1Cl)c1ccc2nccnc2c1
    16	11	1	16	1.8	-5.2	0	-1	-0.2	?
(34) Cc1c(NC(=O)C(C)OC(=O)c2ccc([N+](=O)[O-])s2)c(=O)n(-c2ccccc2)n1C (stereo unspecified)
    -29	11	35	23	4.4	0.3	0	86*	1.9	-27
(35) CC(=O)c1ccc(NC(=O)CSc2nnc(-c3ccco3)c(-c3ccco3)n2)cc1
    0	-8	-1	19	0.6	-0.4	4	4	5.9	99*
(36) CC(C)(CC(=O)N1CCN(c2ccc(Cl)cc2)CC1)CC1=NS(=O)(=O)c2ccccc2N1
    1	-12	.	.	.	0.7	39	28	-6.3	-4
(37) CCCN1C(=O)SC(CC(=O)Nc2ccccc2)C1=O (stereo unspecified)
    -6	8	.	.	.	-0.4	-6	-14	0.0	.
(38) COC(=O)c1noc(-c2ccc(OC)cc2)n1
    4	9	.	.	.	-1.5	-13	-2	-2.1	-8
(39) Cc1cc2occ(CC(=O)NNC(=O)c3ccccc3F)c2cc1C
    6	1	-5	-5	-1.4	0.3	-8	-12	-3.4	2
(40) O=C1CC(NCC2CCCO2)C(=O)N1c1ccc(Cl)cc1 (stereo unspecified)
    -5	-1	10	5	-2.2	-0.2	-6	-23	6.8	4
(41) COc1cccc(-c2nc(-c3ccc(C(=O)O)cc3)no2)c1
    -3	-5	.	.	.	-11	-2	-20	-4.9	4
(42) N#Cc1ccc(C(=O)N2CCN(c3ncccn3)CC2)cc1
    2	1	6	11	-0.2	0.4	0	-9	-1.5	-4
(43) Cc1cc(N2CCN(C)CC2)nc2ccc(NC(=S)N3CCN(c4ccc(F)cc4)CC3)cc12
    8	18	4	-2	-5.9	-0.6	-3	49	-3.4	.
(44) O=C(COC(=O)CNC(=O)c1ccco1)NCCN1C(=O)CSC1=O
    12	2	.	.	.	0.7	-12	9	-10	-3
(45) O=C(NC1CCSc2ccccc21)c1cc([N+](=O)[O-])ccc1N1CCOCC1 (stereo unspecified)
    -2	0	-10	-6	1.2	-0.1	.	-5	0.3	.
(46) Cc1ccnc(NS(=O)(=O)c2ccc(NC(=O)C3CCCNC3=O)cc2)n1 (stereo unspecified)
    -8	25	.	.	.	0.8	-9	-2	2.9	-4
(47) Cc1cccc(NC(=O)CSc2nnc(-c3n[nH]c4ccccc34)o2)c1
    -1	-1	-12	-5	2.0	0.3	-3	-4	7.4	-6
(48) CC1CCN(CC(=O)n2c3c(c4ccccc42)CCCC3)CC1
    2	-29	.	.	.	-0.5	.	11	-3.5	-13
(49) COC(=O)c1sc2ccccc2c1NC(=O)c1cccs1
    3	-2	-23	-32	-8.0	0.7	-1	2	-2.5	-5
(50) COc1ccc(S(=O)(=O)NCC(c2ccc3c(c2)OCO3)N2CCN(c3ccccc3)CC2)cc1 (stereo unspecified)
    3	-4	-3	-3	-1.4	0.3	-2	13	-2.9	1

Next section:
Below each SMILES – B2AR ag	Calb FLC	Ecoli rRNA inh	Ecoli rRNA inh OD600	Ecoli rRNA inh RFP	A1 inh	Beta apoptosis	T cruzi repl	LANA-H2B inh	ALR H2O2 inh
(51) CCN(CC(=O)NC1CCS(=O)(=O)C1)S(=O)(=O)c1cccc(C(C)=O)c1 (stereo unspecified)
    -3	-1	20	0	3.2	1.5	-2	-13	-2.3	14
(52) CC(C)Cc1ccc(CN2CCCC(NC(=O)CCN3CCCCC3=O)C2)cc1 (stereo unspecified)
    -8	-10	9	8	0.0	-0.8	-3	40	2.9	-9
(53) COC(=O)N1C(=O)[C@@](CC(C)C)(c2ccccc2)N1C(=O)OC
    .	-2	.	.	.	0.3	-11	-21	0.1	69
(54) COc1cc(C)ccc1OCc1cc(C(=O)NCCN2CCCC(O)C2)no1 (stereo unspecified)
    -3	28	2	5	1.1	0.3	-2	-27	0.1	-1
(55) COc1cc(C(=O)NCCOc2ccc(F)cc2)c(Br)c(OC)c1OC
    3	?	3	-1	-0.2	0.8	2	-10	-2.0	-30
(56) CCOC(=O)C1=C(C)N=c2s/c(=C/c3ccc(OCC(=O)O)c(OC)c3)c(=O)n2C1c1ccc(Cl)cc1 (stereo unspecified)
    12	-6	4	1	1.0	0.7	-1	1	-0.7	-7
(57) Cc1cc2c(cc1S(=O)(=O)N1CCN(c3ccccc3F)CC1)OCC(=O)N2
    -1	-2	2	4	-0.2	-2.6	-4	0	-3.8	-11
